# rRNA inh HTS – inhibitors of bacterial rRNA selective over humanized ribosomes; E. coli WT GFP vs humanized-ribosome RFP mutants, fluorescence, 24 h; stronger effect = lower value; DMSO median 0, no signal -100; GFP signal change (wild-type ribosome), % (test concentration not listed); 350,000 compounds, 1.6% hits;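 active = significant combined selectivity score with lowered wild-type GFP, culture density cut under 30%, mutant RFP and density less affected; inactive = any of these conditions unmet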; also: one replicate is shown; some compounds called inactive have numbers as strong as hits
# Beta2AR agonist – activates human beta-2 adrenergic receptor causing internalization. P07550. Am2.2-beta2AR cells, FAP receptor internalization, flow cytometry; reference of the scale not given here. response, % (no concentration beside the values). 340,000 compounds, 0.43% hits. AID 504454;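 active = response above a set limit, near 3 SD of response in nonfluorescent compounds, cut at about 42% in these data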;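 also: stock transfer was 100 nL into about 11 µL; a reference agonist was the positive control; negative values mostly stem from fluorescent compounds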
# Target sequence (P07550 whole entry, looked up): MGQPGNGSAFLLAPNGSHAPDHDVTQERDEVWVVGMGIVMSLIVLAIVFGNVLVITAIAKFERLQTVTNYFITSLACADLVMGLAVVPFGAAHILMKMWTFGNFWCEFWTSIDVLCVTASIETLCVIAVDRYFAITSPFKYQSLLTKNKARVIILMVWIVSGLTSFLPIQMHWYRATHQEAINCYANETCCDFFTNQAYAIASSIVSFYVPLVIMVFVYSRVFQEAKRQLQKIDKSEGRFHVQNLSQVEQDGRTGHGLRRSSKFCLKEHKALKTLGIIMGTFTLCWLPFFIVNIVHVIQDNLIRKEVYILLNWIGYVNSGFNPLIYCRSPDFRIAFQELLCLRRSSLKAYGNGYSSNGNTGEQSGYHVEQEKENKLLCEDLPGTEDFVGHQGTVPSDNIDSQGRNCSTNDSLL
# UCH37 DUB inh – blocks the human deubiquitinase UCH37; Q9Y5K5; purified proteasome/UCH37, Ub-AMC cleavage fluorescence; inhibition, % (concentration not given with the values); 330,000 compounds, 0.33% hits; AID 588478;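 active = mean of two replicates above 20%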;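 also: 0% = compound-free wells with enzyme and 100% = wells lacking proteasome; stock transfer was 100 nL into about 20 µL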
#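 assay system = human UCH37 enzyme supplied as purified proteasome complex | amount = proteasome at 0.15 nM in the dispensed enzyme solution | schedule = 30 min compound-proteasome preincubation then 25 min substrate reaction, room temperature | measured by = fluorescence, ex 355 nm, em 460 nm | benchmarks = no-proteasome wells (full inhibition) and compound-free wells (no inhibition)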
# FGF22 binding – binders of recombinant human FGF22 by thermal shift. SYPRO orange fluorescence; percent of sucrose octasulfate shift, DMSO zero. calls only at 9.99 µM. 340,000 compounds, 1.5% hits. AID 651658;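 active = melting point raised past a set limit in the mean and every replicate; inconclusive = no clear call; three in four hits are not shown here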
# Target sequence (Q9HCT0 whole entry, looked up): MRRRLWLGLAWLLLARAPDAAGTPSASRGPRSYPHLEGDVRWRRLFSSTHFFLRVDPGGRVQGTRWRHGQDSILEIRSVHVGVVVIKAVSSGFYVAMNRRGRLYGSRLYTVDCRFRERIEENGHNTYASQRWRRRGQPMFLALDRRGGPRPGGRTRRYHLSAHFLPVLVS
# HNF4A DNA FP – change in binding of human HNF4 alpha to DNA; P41235; activity change, % at 10 µM; HNF4a-FITC DNA binding, fluorescence polarization, 1 h; 360,000 compounds, 0.3% hits; in the data active = activity change above about 30%, passing the limit was not always enough;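 also: controls were the assay level and a saturating level of protein; the project sought stronger binding though the title names inhibitors; some compounds called inactive have numbers as strong as hits; positive values seem to mean higher polarization but the record does not say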
# Target sequence (P41235 whole entry, looked up): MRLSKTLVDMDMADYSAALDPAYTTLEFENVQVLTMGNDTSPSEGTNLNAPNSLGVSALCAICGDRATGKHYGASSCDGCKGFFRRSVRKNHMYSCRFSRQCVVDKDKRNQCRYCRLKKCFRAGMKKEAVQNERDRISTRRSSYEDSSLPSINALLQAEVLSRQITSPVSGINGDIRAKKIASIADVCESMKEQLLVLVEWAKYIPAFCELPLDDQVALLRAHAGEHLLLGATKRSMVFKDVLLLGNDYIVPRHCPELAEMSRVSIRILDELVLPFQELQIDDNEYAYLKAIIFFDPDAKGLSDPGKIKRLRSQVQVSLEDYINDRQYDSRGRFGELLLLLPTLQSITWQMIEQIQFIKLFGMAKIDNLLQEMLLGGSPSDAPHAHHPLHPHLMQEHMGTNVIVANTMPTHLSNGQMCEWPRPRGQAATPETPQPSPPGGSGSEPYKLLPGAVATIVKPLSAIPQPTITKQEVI
# ALR H2O2 inh – blocks human ALR sulfhydryl oxidase activity. purified ALR, DTT oxidation, H2O2 HRP-luminol luminescence. inhibition, % (concentration not given with the values). 290,000 compounds, 3.8% hits. AID 485317;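 active = mean and each replicate at 75% or more; inconclusive = only one of the two met; inactive = neither met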;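 also: stock transfer was 7.5 nL into about 7.5 µL; 0% = neutral wells and 100% = wells with inactivated enzyme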
# E coli growth – inhibitors of Escherichia coli growth; OD600, 23 h; stronger effect = lower value; OD600 absorbance (test concentration not listed); 330,000 compounds, 0.21% hits; AID 1053175;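 active = OD600 absorbance below the run mean of sample wells minus 3.6 SD, in any replicate, cut at about 0.56 in these data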;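 also: stock transfer was 300 nL into about 60 µL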
# rRNA inh HTS OD600 – second read-out of rRNA inh HTS, no call of its own (marks repeat the call); OD600 change, %; measured here: OD600 growth;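 optical density of the mix in the first replicate; 0 = DMSO median and -100 = no signal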
# rRNA inh HTS RFP – also measured in rRNA inh HTS; calls as there; RFP signal change, %; measured here: RFP humanized mutant strains;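 first replicate; 0 = DMSO median and -100 = no signal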
# * = called active by the depositor; i = inactive; u = inconclusive; x = not tested or not shown; & = joins results of further samples.
# Every second line gives: rRNA inh HTS	rRNA inh HTS OD600	rRNA inh HTS RFP	Beta2AR agonist	UCH37 DUB inh	FGF22 binding	HNF4A DNA FP	ALR H2O2 inh	E coli growth
> COc1ccc(OC)c(NC(=O)CSc2nnc(-c3ccco3)n2-c2ccc(C(=O)O)cc2)c1
 : x	x	x	-5	2.4	x	-4.0	-11	0.74
> O=C1Nc2ccccc2C1=Nc1cccc([N+](=O)[O-])c1
 : 13	15	-1.8	9	6.3	i	-0.6	4	0.67
> COc1ccc(CCNC(=O)CSc2nc3ccccc3o2)cc1OC
 : x	x	x	-6	4.1	x	4.6	-15	0.67
> CN(CC(=O)Nc1cccc2ccccc12)c1ccc(S(=O)(=O)N2CCOCC2)cn1
 : x	x	x	5	5.6	x	0.4	-13	0.77
> Oc1ccc(/C=N/Nc2cc(N3CCOCC3)nc(N3CCOCC3)n2)cc1O
 : -25*	-14*	1.1*	3	x	i	1.4	99*	x
> CC(=O)c1c(C)nc(-c2cccc([N+](=O)[O-])c2)n1O
 : 1	7	-2.5	3	4.0	i	-8.8	51	0.69
> CC(=O)OC[C@H]1O[C@@H](O[C@H]2C[C@]3(C)C(C[C@@H](O)C4C([C@]5(C)CC[C@@H](C(C)(C)O)O5)CC[C@]43C)[C@@]3(C)CC[C@H](O)C(C)(C)C23)[C@H](O[C@@H]2O[C@@H](C)[C@H](O)[C@@H](O)[C@H]2O)[C@@H](O)[C@@H]1O (stereo partly drawn)
 : 8	3	9.4	0	-3.8	i	3.4	-10	0.75
> Cc1ccc(NC(=O)CN2C(=O)NC(C)(C3CC3)C2=O)c(C)c1 (stereo not drawn)
 : 20	18	-0.8	4	5.8	i	4.6	-1	0.7
> Cc1nnsc1SCC(=O)O
 : x	x	x	8	1.7	x	-7.7	1	0.73
> CC1CCc2c(sc3ncnc(NCc4cccnc4)c23)C1 (stereo not drawn)
 : -15	-8	-4.4	-8	2.5	i	-1.8	-13	0.72
> C/C(CC(=O)NC1CCCCC1)=N\NC(=O)c1ccccc1C
 : 6	10	-3.3	-5	x	i	0.9	-2	x
> CC(C)NC(=O)NC(=O)COC(=O)c1ccc(OC(F)(F)F)cc1
 : x	x	x	-7	1.3	x	0.9	5	0.66
> CCOC(=O)C1=C(O)/C(=C/c2ccc(OCC(=O)O)c(OC)c2)SC1=Nc1ccc(OCC)cc1
 : 8	1	-2.3	0	9.7	i	-1.4	-4	0.75
> CC(C)CCNC(=O)C1(O)c2ccccc2NC(=O)N1c1ccc(Cl)cc1 (stereo not drawn)
 : -31	-33	-0.5	-2	3.2	i	-1.0	-17	0.64
> COc1ccccc1N1CCN(Cc2ccco2)CC1
 : 2	9	-5.6	-2	4.2	x	-2.3	u	0.74
> O=C(CSc1ccc(-c2ccncc2)nn1)N1CCCC1
 : 17	13	-0.4	2	3.7	i	-1.8	-15	0.69
> COc1ccc(NS(=O)(=O)c2cc(NC(=O)C3=NN(c4ccccc4)C(=O)CC3)ccc2C)cc1
 : -3	-1	0.0	16	0.5	i	-3.2	x	0.7
> COc1ccc2nc(NCCO)[nH]c2c1
 : x	x	x	-1	4.3	x	-1.2	x	0.71
> COc1ccc(N2C(=O)C3C(c4ccc(OC)cc4O)NC(Cc4ccccc4)(C(=O)O)C3C2=O)cc1 (stereo not drawn)
 : 18	17	3.0	0	2.7	i	-5.4	10	0.65
> c1ccc(-c2nc(C3CCCCC3)no2)cc1
 : x	x	x	0	0.8	x	-1.3	1	0.69
> CCCCN(CC(=O)NCc1ccc(F)cc1)C(=O)c1ccco1
 : -1	11	0.1	1	-0.1	i	-2.3	-2	0.63
> COC(=O)[C@]1(C)N[C@H](c2ccc(-c3cccc(Cl)c3)c(OC)c2)[C@@H]2C(=O)N(C)C(=O)[C@@H]21
 : 2	-15	6.3	0	-2.4	i	2.2	-1	x
> CCCCn1c2c(cc(C(=O)OC)c1=O)C(=O)CCC2
 : 5	8	13	4	-11	i	0.4	x	0.69
> COc1ccc2cc(CN(Cc3cccnc3)S(=O)(=O)c3ccccc3)c(=O)[nH]c2c1
 : -32	-27	-1.6	5	-9.0	i	-0.1	x	0.66
> C[C@@H]1CN([C@H](C)CO)C(=O)CCCn2nncc2CO[C@H]1CN(C)C(=O)C1CC1
 : 2&2	8&9	-2.8&0.1	x	x	i	-1.4	x	x
> CCOc1ccc(CN2CCNC(=O)C2CC(=O)NCc2csc(C)n2)cc1 (stereo not drawn)
 : 17	19	3.7	4	5.3	i	0.8	-3	0.71
> C#CCCCc1nc2ccccc2c(=O)n1N
 : x	x	x	-2	0.0	x	0.0	-5	0.64
> COc1cccc(-c2cnc(OC(C)(C)C)nc2OC(C)(C)C)c1
 : x	x	x	-4	1.1	x	-2.4	-1	0.72
> COc1cc2c(cc1OC)C(c1ccccc1)N(Cc1ccc(S(=O)(=O)NC(=O)c3ccco3)cc1)CC2 (stereo not drawn)
 : -18	-4	8.0	x	x	i	2.1	x	x
> CCn1c(SCC(=O)N/N=C/C=C/c2ccco2)nnc1-c1ccccc1
 : 24	21	11	-5	x	i	-1.7	-7	x
> COc1ccc([N+](=O)[O-])cc1N(CC(O)CN1C(=O)NC(C)(C)C1=O)S(=O)(=O)c1ccccc1 (stereo not drawn)
 : 6	5	0.1	-2	3.6	i	-4.3	-2	0.69
> O=C(CCc1ccccc1)N1CCN(c2ccc(Cl)cc2)CC1
 : x	x	x	1	5.4	x	1.7	u	0.71
> Oc1ccc2ccccc2c1CN1CCCCC1
 : 1	13	1.3	-6	-25	i	-4.9	x	0.65
> CCOc1ccc2nc(NC(=O)C3(C)CC3(Br)Br)sc2c1 (stereo not drawn)
 : -42*	-24*	-8.3*	14	3.9	i	4.6	-5	0.59
> COc1ccc(-n2c(SCc3cn4c(C)cccc4n3)nc3ccccc3c2=O)cc1OC
 : -27	-5	36	7	4.6	i	2.7	0	0.69
> CC(=NNc1nc2ccccc2o1)c1ncccn1
 : -52	-75	-20	5	x	i	4.3	x	x
> Cc1ccc(-n2nc3c(c2NC(=O)c2ccc(F)c(F)c2)CS(=O)(=O)C3)cc1
 : -6	-9	1.0	10	1.1	i	4.8	-1	0.68
> Fc1cccc(NC(=S)NCc2ccccc2Cl)c1
 : -42	-55	-12	-1	5.4	i	0.6	x	0.62
> COc1ccc(CN2CCCC(C(=O)c3cccc(C(F)(F)F)c3)C2)cc1O (stereo not drawn)
 : 1	-15	-3.5	-9	3.4	i	-1.9	x	0.61
> NC(=O)c1ccccc1OCC(=O)Nc1ccc(Cl)c(Cl)c1
 : -31	-27	-3.6	-3	2.2	i	0.7	x	0.65
> O=C(COC(=O)c1cc(=O)[nH]c2ccccc12)NCc1ccc(Cl)cc1
 : 0	7	-2.1	-1	-18	i	0.9	0	0.71
> O=C(NCCC(=O)N(Cc1ccco1)Cc1cccs1)c1ccccc1Cl
 : x	x	x	-4	0.6	i	-4.8	-2	0.65
> CCOCCn1c(C(C)O)nc2ccccc21 (stereo not drawn)
 : x	x	x	2	0.5	x	-1.0	-34	0.74
> COc1ccc(NC(=O)/C=C/c2cccc(C(F)(F)F)c2)cn1
 : -1	7	3.0	12	2.9	i	-0.5	-7	0.63
> CCC(=O)n1nc(-c2ccc(Cl)cc2)nc1NCc1ccccc1
 : 4	18	29	-11	3.0	i	3.2	-21	0.77
> COC(=O)CN1C(=O)[C@H]2[C@@H](/C=C/c3ccccc3)N3C(=O)CN(CCO)C(=O)[C@@]3(Cc3ccccc3)[C@H]2C1=O
 : 11	16	-11	-4	1.4	i	1.6	-11	x
> CCNC(=O)C1(C)CCCN(C(=O)c2cccnc2Oc2ccccc2)C1 (stereo not drawn)
 : 8	10	-12	x	x	i	-0.7	x	x
> COc1cccc(/C=N/NC(=O)C(=O)N/N=C/c2cccc(OC)c2OC)c1OC
 : 4	9	-8.4	-13	x	i	-1.3	1	x
> CCOC(=O)N1CCN(C(=O)CN(C2CCCCC2)S(=O)(=O)c2ccc(F)cc2)CC1
 : x	x	x	-9	0.1	x	-1.1	-11	0.69
> O=C(O)C1CCCN1C(=O)OCc1ccccc1 (stereo not drawn)
 : 5	5	1.7	6	4.3	x	0.3	-4	0.7
> Cc1ccccc1-c1nc(CS(=O)(=O)CC(=O)NC2CCCC2)c(C)o1
 : -11	-12	-4.8	-3	1.4	i	-3.5	-11	0.74
> O=C(NN1C(=O)C2C3c4ccccc4C(c4ccccc43)[C@@H]2C1=O)c1ccccc1 (stereo partly drawn)
 : 8	3	-2.5	1	1.2	i	0.0	-12	0.66
> CCN1C(=O)N[C@@H](c2cccc(C(F)(F)F)c2)[C@H](C(=O)OC)[C@H]1C
 : 3	9	11	-4	3.3	i	3.8	-3	x
> COc1ccccc1NC(=O)NNC(=O)c1ccc2ccccc2c1
 : 7	13	-0.6	-4	-6.1	i	-4.0	25	0.7
> Cc1ccc(OCC(=O)Nc2ccc(-c3nc4ncccc4o3)cc2)cc1
 : x	x	x	117*	-113	x	-6.0	-29	0.72
> COc1ccc(C(=O)N2CCOCC2c2cc(C(=O)NCc3ccccc3)no2)cc1 (stereo not drawn)
 : 11	13	-2.4	x	x	i	3.2	x	x
> COC(=O)c1c(N=CN(C)C)c(C#N)c2n1CCCC2
 : x	x	x	-2	1.9	x	-0.8	-5	0.71
> O=C(Nn1c(-c2ccc(Br)cc2)nc2ccccc2c1=O)c1cccnc1
 : -10	-19	1.0	4	4.0	i	0.3	-18	0.7
> CCCCCCCNC(=O)C1(CC2CC(c3ccccc3)=NO2)CCNCC1 (stereo not drawn)
 : -27	-40	15	24	1.3	i	-1.6	x	0.67
> O=C(CN(Cc1ccccc1)C(=O)CCC(=O)Nc1ccccn1)NCc1ccco1
 : x	x	x	-6	1.5	x	1.9	0	0.79

# (list continues)
# Every second line gives: rRNA inh HTS	rRNA inh HTS OD600	rRNA inh HTS RFP	Beta2AR agonist	UCH37 DUB inh	FGF22 binding	HNF4A DNA FP	ALR H2O2 inh	E coli growth
> O=C(CCNS(=O)(=O)c1ccc(Br)s1)NCc1ccccc1
 : 1	-1	0.5	7	0.6	x	-0.6	-1	0.7
> COc1cc(CC(=O)Nc2ccc(S(=O)(=O)Nc3ncccn3)cc2)cc(OC)c1OC
 : x	x	x	-1	-2.7	x	3.5	38	0.65
> O=C(CSc1nccc(=O)[nH]1)Nc1ccc(F)c([N+](=O)[O-])c1
 : 13	7	-7.7	-1	1.7	i	-2.7	0	0.62
> COc1cc(OC)cc(C(=O)N2CCN(c3ccccn3)CC2)c1
 : 4	-2	-2.0	-5	-0.6	x	-0.1	-2	0.68
> COc1ccc(NC(=S)NCc2ccccn2)cc1OC
 : -2	2	-0.2	-1	3.0	i	-1.1	-4	0.69
> O=C(C(=O)N(C1CCCCC1)C1CCCCC1)c1ccccc1
 : -39	-55	10	x	x	i	-0.9	x	x
> CCc1nnc(NC(=O)C2CCCN(S(=O)(=O)c3ccc(OC)cc3)C2)s1 (stereo not drawn)
 : -4	-9	1.8	5	-2.2	i	-2.0	1	0.63
> C=C(C)CNC(=S)NNC(=O)c1ccncc1
 : 16	12	0.3	-7	1.6	i	-1.2	24	0.7
> Cc1ccc(CS(=O)(=O)c2cn(CC(=O)N3CCOCC3)c3ccccc23)cc1
 : 13	11	0.4	3	0.2	i	3.0	0	0.7

# Fetched by compound from above, two records:
# Every second line gives: rRNA inh HTS	rRNA inh HTS OD600	rRNA inh HTS RFP	Beta2AR agonist	UCH37 DUB inh	FGF22 binding	HNF4A DNA FP	ALR H2O2 inh	E coli growth
> CC(=O)c1c(C)nc(-c2cccc([N+](=O)[O-])c2)n1O
 : 1	7	-2.5	3	4.0	i	-8.8	51	0.69
> COC(=O)[C@]1(C)N[C@H](c2ccc(-c3cccc(Cl)c3)c(OC)c2)[C@@H]2C(=O)N(C)C(=O)[C@@H]21
 : 2	-15	6.3	0	-2.4	i	2.2	-1	x

# High-throughput results: PubChem BioAssay, several laboratories

# The list is partial. The share of hits here may be higher or lower than overall.
